Mtb H37Rv: Mycobacterium tuberculosis H37Rv growth inhibition, cell based, confirmatory dose response (AID 1949). most inactive calls were filed without a number and no value below 0 was filed. inhibition, % at 10 µg/mL, or IC50 in µg/mL where a hit was titrated. actives 1.6% (n = 100,000);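 active = confirmed in a dose series; inconclusive = about 50% or more but not retested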;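 note: bacteria grown 7 days with compound before Alamar blue readout; 0% = untreated bacteria and 100% = reference antibiotic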
The depositor's hits bear a star; i = inactive; ? = inconclusive.

SMILES	Mtb H37Rv
COC(=O)Cc1c(C)nc2nc(COc3ccccc3)[nH]n2c1=O	i
CCOC(=O)C1CCCN(C(=S)Nc2cc(OC)cc(OC)c2)C1 (stereo not drawn)	i
CN(c1ccccc1C(=O)N1CCOCC1)S(C)(=O)=O	2%
COc1ccc(-n2nc3ccc(NC(=S)NC(=O)c4ccccc4F)cc3n2)cc1Cl	0%
O=C(CSc1nnc(-c2cccc(Cl)c2)n1-c1ccccc1)NCc1ccccc1	i
Cc1ccc(SCC(=O)NCCc2ccc(F)cc2)cc1	i
CS(=O)(=O)N(Cc1ccccc1)c1ccc(C(=O)Nc2cc(Cl)cc(Cl)c2)cc1	i
CC(=O)c1cccc(NC(=O)CCSc2ccc(C)cc2)c1	6%
CCOc1ccc(-c2nnc(Nc3ccc(OCC(N)=O)cc3)c3ccccc23)cc1	i
Cc1cc(C)cc(NC(=O)c2cccc(OCc3ccccc3)c2)c1	0%
Cc1sc(NC(=O)CC23CC4CC(CC(C4)C2)C3)c(C(N)=O)c1-c1ccccc1	9%
COc1cc(OC)c(NC(=S)NC2CCCC2)cc1Cl	i
Cc1ccccc1C(=O)N1CCCN(C(=O)c2ccccc2C)CC1	i
Cc1ccc(Cc2nc(-c3ccccn3)no2)cc1	i
CCCC(C)C(=O)Nc1ccccc1C(F)(F)F (stereo not drawn)	i
Cc1cccc(N(Cc2ccccc2)C(=O)c2cc3ccccc3oc2=O)c1	2%
CC(Oc1ccccc1)c1nnc(NC(=O)c2ccc(Cl)cc2Cl)s1 (stereo not drawn)	i
CC1Cc2ccccc2N1C(=O)C1CCCO1 (stereo not drawn)	i
O=C(COc1ccc(F)cc1)N1CCOCC1	i
CCn1c(SCC(=O)c2ccc3c(c2)Cc2ccccc2-3)nnc1-c1ccc(N)cc1	i
COC(=O)c1cc(NC(=O)c2ccoc2C)cc(C(=O)OC)c1	i
CC(C)(C)c1ccc(OCC(=O)N(c2ccccn2)C2CCCCC2)cc1	i
O=C(COc1ccc(S(=O)(=O)NC2CCCCC2)cc1)Nc1ccc(Oc2ccccc2)cc1	i
O=C(CSc1nnc(NC(=O)c2ccccc2Cl)s1)Nc1cccc(C(F)(F)F)c1	i
CCOc1ccccc1N(CC(=O)Nc1cc(C(=O)OC)ccc1Cl)S(C)(=O)=O	i
CCOc1cc(C(=S)N2CCN(C)CC2)ccc1OCC(=O)N1CCOCC1	i
Cc1cc(Cl)ccc1OCC(=O)N1CCN(c2c(F)c(F)c(F)c(F)c2F)CC1	i
Cc1cccc(NC(=O)C(C)(c2ccccc2)c2ccccc2)c1	3%
O=C(Nc1ccc(S(=O)(=O)NCCc2ccccc2)cc1)c1ccccc1F	i
CN(c1ccc(C(=O)Nc2ccc3c(c2)OCO3)cc1)S(C)(=O)=O	7%
COc1ccc(C2(CNC(=O)Cc3cccc4ccccc34)CCOCC2)cc1	3%
N#C/C(=C/c1cccc(C(F)(F)F)c1)c1ccc([N+](=O)[O-])cc1	i
C=CCc1cc(Cl)ccc1OCCCNCCCC	5.3µg/mL*
O=C(c1ccc2c(c1)OCO2)N1CCN(c2ccccc2F)CC1	i
Cc1cccc(S(=O)(=O)N2CCN(C)CC2)c1	i
CC(C)(C)C(=O)Nc1scc(-c2cccs2)c1C(=O)O	18%
O=C(c1ccc(C#CC2(O)CCCCC2)cc1)N1CCN(c2ccccc2F)CC1	i
COc1cc(NC(=O)c2cccc(OCc3ccccc3)c2)ccc1NC(=O)c1ccccc1Cl	7%
COc1ccc2nc(NC(=O)c3c(F)c(F)c(F)c(F)c3F)sc2c1	i
Cc1sc2ncn(Cc3ccc(C(=O)OC(C)C)cc3)c(=O)c2c1-c1ccccc1	5%
Cc1cc2c3c(C)n(Cc4ccccc4)c(C)c3c(C)nn2c1	i
c1ccc(CC2CCN(c3nc(N4CCOCC4)nc(N4CCOCC4)n3)CC2)cc1	i
O=C(Nc1ccc(CSc2ccccc2)cc1)c1ccco1	7%
Cc1cc(OCC(=O)NCc2ccc3c(c2)OCO3)c(C)cc1Br	i
Nc1cc(=O)[nH]c2nnc(SCC(=O)Nc3c(Cl)cccc3Cl)n12	i
O=C(CC(c1ccccc1)C1CCCCC1=O)c1ccccc1 (stereo not drawn)	i
N#C/C(=C/c1ccc(C(=O)O)cc1)c1ccc(Cl)cc1	i
O=C(Nc1cccc(C(F)(F)F)c1)c1ccc(Cn2cc(Br)cn2)o1	i
CC(=O)N1c2ccccc2NC2=C(C(=O)CC(c3ccc(C(C)(C)C)cc3)C2)C1c1ccco1 (stereo not drawn)	3%
COC(=O)c1ccccc1NC(=O)CN(c1ccc(F)cc1)S(C)(=O)=O	2%
(more compounds)
SMILES	Mtb H37Rv
CCOC(=O)c1ccc(NC(=O)c2cc3c(n(-c4ccccc4)c2=O)CCCC3=O)cc1	i
CCOC(=O)c1ccc2nc(C)cc(Nc3ccc(N4CCCCC4)cc3)c2c1	2.4µg/mL*
COc1cc(C2NC(=S)NC(C)=C2C(=O)Nc2cc(C)ccc2C)ccc1O (stereo not drawn)	i
CCOC(=O)c1cc(Cc2ccccc2)sc1NC(=S)N1CCN(c2ncccn2)CC1	i
O=C(Nc1ccc2[nH]c(=O)nc(-c3ccccc3)c2c1)C(F)(F)F	1%
Cc1ccc(C(C)C)cc1OCCCCn1ccnc1	1.9µg/mL*
COc1cc(-c2nc(S(=O)(=O)c3ccc(Cl)cc3)c(N(C)C)o2)cc(OC)c1OC	i
COc1ccc(OC)c(NC(=O)COc2ccc3ccccc3c2Br)c1	i
O=C(NCc1cccnc1)C1CC(c2ccc(Cl)c(Cl)c2)=NO1 (stereo not drawn)	i
CC(=O)c1ccc(-c2ccc(/C=C\c3[nH]c(=O)[nH]c(=O)c3[N+](=O)[O-])o2)cc1	i
CCN1C(=O)CC(N2CCN(CC(=O)NC(C)C)CC2)C1=O (stereo not drawn)	i
Cc1cc(C)n(C(=O)c2ccc(NC(=O)CC(C)C)cc2)n1	i
OCCCc1nc2ccccc2n1CCCOc1ccccc1	5%
CCOc1cc(CN2CCN(C(=O)CC(C)C)CC2)ccc1OC	i
CCOc1ccc(NC(=O)C2CC(=O)NC(N3CCc4ccccc43)=N2)cc1 (stereo not drawn)	1%
O=c1cc(C(F)F)oc2ccc([N+](=O)[O-])cc12	i
COc1ccc(/C=C(/NC(=O)c2ccccc2OC)C(=O)Nc2cccc(C(=O)O)c2)cc1	16%
COC(=O)c1sccc1NC(=O)C1CC=CCC1C(=O)O (stereo not drawn)	i
CC(=O)N(C)c1ccc(NC(=S)Nc2ccc(C)c(Cl)c2)cc1	40%
Cc1cccc(-n2c(SCC(=O)Nc3ccccc3)nnc2-c2ccccc2)c1	i
COc1ccc(NC(=O)CN(c2cccc(OC)c2)S(C)(=O)=O)cc1	i
CCOc1ccc(OCC)c(S(=O)(=O)n2nc(C)cc2C)c1	i
COc1cc(CNC(C)C)c(Br)cc1OC1CCCC1	i
N#Cc1c2n(c3c(=O)n(CC(=O)c4ccccc4)cnc13)CCCC2	1%
Cc1ccc(S(=O)(=O)N2CCN(c3nc(NC(C)c4ccccc4)c4ccccc4n3)CC2)cc1 (stereo not drawn)	?
C=CCOc1c(CNc2nccs2)cccc1OCC	?
O=c1nc(/C=C/c2ccc(F)cc2F)cc(C(F)(F)F)[nH]1	8%
Cc1c(Cc2ccccc2)c(=O)oc2cc(OCC(=O)N(C)C)ccc12	2%
CCOC(=O)c1c(NC(=O)c2cccc(F)c2)sc(C(C)=O)c1C	i
CCCCOc1ccc(Br)cc1C1NC(=S)NC(C)=C1C(=O)Nc1ccc(C)cc1 (stereo not drawn)	i
O=c1[nH]c(/C=C\c2cccc(C(F)(F)F)c2)nc(O)c1[N+](=O)[O-]	16%
c1ccc(COc2ccc(OCCCCn3ccnc3)cc2)cc1	5.4µg/mL*
CCCn1c(COc2ccccc2OC)nc2ccccc21	2%
Cc1cc(C)c(S(=O)(=O)N2CCN(c3cccc(Cl)c3)CC2)cc1C	i
COc1cc2ccccc2cc1C(=O)NC(=S)Nc1ccccc1C(F)(F)F	i
CCc1cc(Br)cc(C)c1NC(=O)C1CC(=O)N(c2ccc(C)cc2)C1 (stereo not drawn)	i
COc1ccc(Cl)cc1NC(=O)NC(C)C1CCCO1 (stereo not drawn)	i
Cc1ccc([N+](=O)[O-])cc1NC(=O)COc1ccc(S(=O)(=O)NCc2ccccc2)cc1Cl	i
CC(C)(C)NC(=O)COc1ccccc1C(=O)Nc1cccc(Cl)c1Cl	i
Nc1nc2ccccc2n1Cc1ccc(Br)cc1	10%
CCn1c(SCC(=O)Nc2ccc(C)cc2Br)nnc1-c1ccc(Cl)cc1	i
CCOC1C(OCC)N(S(=O)(=O)c2ccccc2)CCN1S(=O)(=O)c1ccccc1 (stereo not drawn)	i
CCC(=O)N1c2ccccc2NC2=C(C(=O)CC(c3ccco3)C2)C1c1ccc(N(CC)CC)cc1 (stereo not drawn)	1%
COc1cc(C=O)cc(Br)c1OCC(N)=O	2%
CC(=O)Nc1ncc2c(n1)CC(c1ccccc1)CC2=O (stereo not drawn)	i
CCCCNC(=O)c1ccccc1NC(=O)c1ccc(Br)cc1	i
COc1ccc(OC)c(N(CC(=O)Nc2ccc(NC(C)=O)cc2)S(=O)(=O)c2ccccc2)c1	i
O=C(O)Cn1cc(C(=S)N2CCCCC2)c2ccccc21	i
CC(C)Oc1ncnc2sc3c(c12)CCCC3	i
Cc1ccc(C(=O)Nc2cccc(NC(=O)C(C)C)c2)cc1Cl	i
Further entries follow.
SMILES	Mtb H37Rv
CCCCOc1ccc(C(=O)Nc2cccc(NC(=O)CCCC)c2)cc1	3%
O=c1c2cc(-c3ccccc3)sc2ncn1Cc1ccc([N+](=O)[O-])cc1	i
C=CCn1c(SCCC(=O)NC2CCCCC2)nc2sc3c(c2c1=O)CCC3	i
CCOc1cc(C(=O)Nc2sc(C)c(CC)c2C(N)=O)cc(OCC)c1OCC	i
Cn1nnc2cc(C(=O)NCc3ccc4c(c3)OCO4)ccc21	i
O=c1oc2ccccc2cc1-c1csc(Cc2nc3c(s2)CCCC3)n1	4%
Cc1ccccc1CNC(=O)Nc1ccc(Cl)cc1	i
O=C(NCc1ccccn1)c1cnn2c(C(F)(F)F)cc(-c3cccs3)nc12	i
NC(=O)c1c(NC(=O)Cc2ccc(Cl)cc2)sc2c1CCCCC2	i
COc1cc(NC(=O)c2cc(C)ccc2C)c(OC)cc1Cl	4%

For reference, some entries already given.
SMILES	Mtb H37Rv
CCn1c(SCC(=O)Nc2ccc(C)cc2Br)nnc1-c1ccc(Cl)cc1	i
CCOC1C(OCC)N(S(=O)(=O)c2ccccc2)CCN1S(=O)(=O)c1ccccc1 (stereo not drawn)	i
CCC(=O)N1c2ccccc2NC2=C(C(=O)CC(c3ccco3)C2)C1c1ccc(N(CC)CC)cc1 (stereo not drawn)	1%
COc1cc(C=O)cc(Br)c1OCC(N)=O	2%
CC(=O)Nc1ncc2c(n1)CC(c1ccccc1)CC2=O (stereo not drawn)	i
CCCCNC(=O)c1ccccc1NC(=O)c1ccc(Br)cc1	i
COc1ccc(OC)c(N(CC(=O)Nc2ccc(NC(C)=O)cc2)S(=O)(=O)c2ccccc2)c1	i
O=C(O)Cn1cc(C(=S)N2CCCCC2)c2ccccc21	i
CC(C)Oc1ncnc2sc3c(c12)CCCC3	i
Cc1ccc(C(=O)Nc2cccc(NC(=O)C(C)C)c2)cc1Cl	i
CCCCOc1ccc(C(=O)Nc2cccc(NC(=O)CCCC)c2)cc1	3%
O=c1c2cc(-c3ccccc3)sc2ncn1Cc1ccc([N+](=O)[O-])cc1	i
C=CCn1c(SCCC(=O)NC2CCCCC2)nc2sc3c(c2c1=O)CCC3	i
CCOc1cc(C(=O)Nc2sc(C)c(CC)c2C(N)=O)cc(OCC)c1OCC	i
Cn1nnc2cc(C(=O)NCc3ccc4c(c3)OCO4)ccc21	i
O=c1oc2ccccc2cc1-c1csc(Cc2nc3c(s2)CCCC3)n1	4%
Cc1ccccc1CNC(=O)Nc1ccc(Cl)cc1	i
O=C(NCc1ccccn1)c1cnn2c(C(F)(F)F)cc(-c3cccs3)nc12	i

Next part
SMILES	Mtb H37Rv
Nc1c(C(=O)N(c2ccccc2)c2ccccc2)sc2nc3c(cc12)CCC3	2%
O=C(CN(C1CCCCC1)S(=O)(=O)c1ccc(F)cc1)Nc1cccc(Cl)c1Cl	i
COc1cc2c(cc1OC)CN(S(C)(=O)=O)CC2	i
CC(=O)Nc1ccccc1-c1nc2ccccc2nc1OCc1ccc(Cl)cc1	2%
Cc1nn2c(C(F)(F)F)cc(-c3ccccc3)nc2c1-c1ccccc1	i
O=C(COc1ccccc1[N+](=O)[O-])Nc1nncs1	i
O=C(Nc1nnc(-c2ccccc2)s1)c1cccc(Br)c1	i
CC(CS(=O)(=O)c1ccc([N+](=O)[O-])cc1)N1CCCCC1 (stereo not drawn)	i
CCOC(=O)c1ccc(Oc2nc(N(C)C)nc(N3CCOCC3)n2)cc1	5%
Cc1nc(Nc2nc3ccccc3o2)ncc1C(=O)Nc1ccc(F)cc1	i
CC(=O)c1ccc(NC(=S)NC(=O)COc2ccccc2)cc1	2%
COC(=O)CNC(=O)c1ccc(S(=O)(=O)N2CCOCC2)cc1	i
O=C(O)C1CCCCC1C(=O)Nc1nc(-c2ccc(Cl)c(Cl)c2)cs1 (stereo not drawn)	3%
Cc1cc(Cl)ccc1OCCCC(=O)Nc1nnc(Cc2ccccc2)s1	i
CCN(Cc1ccccc1)Cc1c(O)ccc2c(=O)c(-c3ccccc3OC)c(C(F)(F)F)oc12	i
Cc1cc(Br)ccc1OCC(=O)Nc1ccccc1-c1ccccc1	i
CC(=O)Nc1ccc2nc(SCc3cccc(F)c3)sc2c1	i
Cc1sc(CCc2nc(-c3ccccc3)c(C)s2)nc1-c1ccccc1	i
CS(=O)(=O)N(CC(=O)N1CCN(c2ccccc2)CC1)c1ccccc1F	i
C=CCc1cccc2cc(C(=O)Nc3c(C)cccc3C)c(=O)oc12	i
COc1ccc(NC(=O)CSc2nc(C)cc(=O)[nH]2)c(OC)c1	i
Cc1ccc(S(=O)(=O)NC(=O)COc2ccccc2)cc1	i
S=C(Nc1cccc(Cl)c1Cl)Nn1cnnc1	i
Cc1ccc(S(=O)(=O)Nc2ccccc2C(=O)NC2CCCC2)cc1	i
Cc1ccccc1Cn1cnc2scc(-c3ccc(F)cc3)c2c1=O	46%

Bioassay records (PubChem)

Only part of the results is shown (hit frequency here may not be typical).
